Compound activity (PubChem)
StopGo RLuc – FMDV 2A StopGo reporter, Renilla signal; HEK cells with a luciferase reporter of 2A StopGo recoding; Potency, µM (top dose mostly 57.5 µM), for the others: top-dose signal change, negative = less light; 0.32% of 120,000 active; AID 1745857; active means well fitted falling curve with a large enough effect; inconclusive means small, poorly fitted or top-dose-only effect; inactive means no such curve, though single readings can be large or run the other way; note: nearly all actives have a fitted effect of over 55% in size; overnight with compound
2A firefly – FMDV 2A StopGo reporter, firefly signal. HEK cells with a luciferase reporter of 2A StopGo recoding. 0.23% of 120,000 active. Potency, µM (series often up to 57.5 µM), for inactives: at the highest dose signal change, negative = less light. AID 1745856; active = well fitted falling curve with a large enough effect; inconclusive = small, poorly fitted or top-dose-only effect; inactive = no such curve, though single readings can be large or run the other way; note: nearly all actives have a fitted effect of over 60% in size; overnight with compound
* hit, by the source's call; ? = inconclusive; & = joins results of further samples; [ ] = another dose, or the depositor's remark. % is set by controls: 0 for no effect and ±100 for the full control effect; potency is the fitted concentration of half-maximal effect.

SMILES	StopGo RLuc	2A firefly
O=C(c1ccc2c(c1)N(Cc1ccccc1)C(=O)c1ccccc1S2=O)N1CCC(Cc2ccccc2)CC1 (stereo not given)	?	?
COc1cccc(CNC(=O)c2cc(C3CC3)nc3onc(C)c23)c1	48%[activator]	-7%
Cc1ccccc1-n1cc(-c2ccccc2)nc1SCC(=O)Nc1ccc(F)cc1	23%	-10%
O=C1CCc2cc(S(=O)(=O)N(Cc3ccccc3)c3ccccc3)cc3c2N1CCC3	35%[activator]	14%
O=C(CSc1ncnc2ccccc12)Nc1ccc(F)cc1	?	25%
Cc1ccc(NC(=O)CCS(=O)(=O)c2ccc(Br)s2)c(Br)c1	19%	25%
COc1cccc(-c2nc(SCc3cc(=O)n4c(C)csc4n3)n[nH]2)c1	-1%	-14%
Cc1ccc(NC(=O)C(C)Sc2nc3cc(S(=O)(=O)N4CCCCC4)ccc3o2)cc1 (stereo not given)	18%	-5%
Cc1cccc(NC(=O)Cc2nc(-c3c[nH]c(C(=O)N4CCCC4)c3)cs2)c1	6%	-3%
Cc1ccccc1CN1C(=O)CN=C(c2ccccc2)c2cc(Cl)ccc21	?	?
O=C(CSc1nc(-c2ccc(Cl)cc2)cs1)N1CCCc2ccccc21	13%	19%
COc1ccc(C2=C(C(C)=O)Sc3nnc(-c4ccccc4)n3N2C(C)=O)cc1	-12%	-23%
Cc1ccc(-n2ncc3c(Nc4ccccc4)ncnc32)cc1	2%	193%[activator]
Cc1c(C(=O)N2CCC(C)CC2)c(S(=O)(=O)NCCc2ccc(Cl)cc2)c(C)n1C	163%[activator]	0%
COc1ccc(-c2nc(C#N)c(NC(C)C)o2)cc1	33%[activator]	199%[activator]
COc1ccccc1/C=C/c1nc(C#N)c(N2CCN(C)CC2)o1	4%&48%	15%&116%
COc1cccc(-c2nc(CS(=O)(=O)CC(=O)N3CCOCC3)c(C)o2)c1	-1%	-1%
N#Cc1ncn(CCC(=O)Nc2ccc(F)c(F)c2)n1	-24%	-18%
CC1C/C(=N/NC(=O)c2ccccc2)CC(C)(C)C1 (stereo not given)	-7%	92%[activator]
CCCCn1c(N)c(N(C)C(=O)C2=NN(c3cccc(C)c3)C(=O)CC2)c(=O)[nH]c1=O	-17%	-16%
CCc1cccc(C)c1NC(=O)CSc1n[nH]c(-c2ccccc2)n1	?	?
CCCCNC(=O)C[C@H]1C[C@@]2(C(=O)OC)C(=C[C@H](C(C)C)O[C@@H]2C2CC2)N(Cc2ccc3c(c2)OCO3)C1=O	156%[activator]	-10%
Cc1cccc(-n2ncc(C(=O)N3CCN(c4ccc(C)cc4C)CC3)c2C2CCN(C(=O)OC(C)(C)C)CC2)c1	5%	-19%
CCCc1cc(=O)oc2c(C)c(OCC(=O)NCc3ccncc3)ccc12	-4%	-7%
COc1ccc(NC(=O)C2(c3cccs3)CCOCC2)cc1Cl	6%	-20%
Cc1cccc(NC(=O)CSc2nc3c([nH]c4ccccc43)c(=O)n2C)c1	148%[activator]	-12%
Nn1c(SCC(=O)Nc2cccc(C(F)(F)F)c2)nnc1-c1cc(-c2ccc(Cl)cc2)n[nH]1	0%	142%[activator]
Nc1c(Cl)cc(NC(=O)CCc2ncc(-c3ccc(Cl)cc3)o2)cc1Cl	15%	9%
O=C(NC1CCN(Cc2ccccc2)C1)c1ccccc1-c1ncc(-c2ccccc2)o1 (stereo not given)	29%	45%[activator]
Cc1ccc(-c2c(NC(=O)c3ccco3)oc3ccc(Cl)cc3c2=O)cc1	-5%	0%

Continued, starting with the last 3 of the part before.
SMILES	StopGo RLuc	2A firefly
Nc1c(Cl)cc(NC(=O)CCc2ncc(-c3ccc(Cl)cc3)o2)cc1Cl	15%	9%
O=C(NC1CCN(Cc2ccccc2)C1)c1ccccc1-c1ncc(-c2ccccc2)o1 (stereo not given)	29%	45%[activator]
Cc1ccc(-c2c(NC(=O)c3ccco3)oc3ccc(Cl)cc3c2=O)cc1	-5%	0%
Cc1cc(C)cc(N(CC(=O)NCc2ccccc2Cl)S(=O)(=O)c2c(C)[nH]c(=O)[nH]c2=O)c1	15%	-11%
CC1Cc2cc(S(=O)(=O)NCc3ccc(N(C)C)cc3)ccc2N1C(=O)C1CCC1 (stereo not given)	?	?
CC(=O)Nc1c(C)nn(-c2ccccc2)c1N1CCC(C(=O)Nc2cc(Cl)ccc2C)CC1	-6%	-13%
COc1cc(-c2nc3ccccn3c2Nc2ccccc2C)ccc1O	41%[activator]	16%
O=C(O)CSc1ccc(F)cc1	23%	13%
COc1ccc(-c2noc(CC(=O)N(C)c3cc(Cl)c(OC)cc3OC)n2)cc1	-14%	-2%
CC(=O)c1ccc(NC(=O)CSCc2ccc(Cl)cc2Cl)cc1	-1%	4%
Cc1nn(-c2ccc3nnc(C)n3n2)c2c1C(c1ccc(OCC(C)C)cc1)CC(=O)N2 (stereo not given)	-12%	3%
COc1cc(C(=O)Oc2ccc(C(C)=O)cc2)ccc1C	4%	16%
Cc1cccc(NC(=O)c2n[nH]c(=O)c3ccccc23)c1	3%	146%[activator]
CCn1c(COc2cc(C)cc(C)c2)nnc1SCC(=O)NC1CCCC1	5%	8%
CCCCOc1ccc(Cn2c(=O)oc3ccccc32)cc1	-15%	-3%
Cc1ccc(-n2ncc(C(=O)NCc3ccccn3)c2C2CCN(C(=O)OC(C)(C)C)CC2)cc1C	38%[activator]	11%
COc1ccccc1NC(=O)Cn1nnc(C(=O)NCc2ccc3c(c2)OCO3)c1N	-1%	4%
O=C(c1ccc2c(c1)N(Cc1ccccc1F)C(=O)c1ccccc1S2(=O)=O)N1CCc2ccccc21	51%[activator]	-8%

Entries from the list above with two or more sulfur atoms, in the order listed:
SMILES	StopGo RLuc	2A firefly
Cc1ccc(NC(=O)CCS(=O)(=O)c2ccc(Br)s2)c(Br)c1	19%	25%
COc1cccc(-c2nc(SCc3cc(=O)n4c(C)csc4n3)n[nH]2)c1	-1%	-14%
Cc1ccc(NC(=O)C(C)Sc2nc3cc(S(=O)(=O)N4CCCCC4)ccc3o2)cc1 (stereo not given)	18%	-5%
O=C(CSc1nc(-c2ccc(Cl)cc2)cs1)N1CCCc2ccccc21	13%	19%

Further results:
SMILES	StopGo RLuc	2A firefly
CC(c1ccc(F)cc1)N(C)C(=O)c1ccc(S(=O)(=O)N(C)C)cc1 (stereo not given)	39%	5%
CN(C)C(=O)C(OC(=O)c1cc(-c2cccs2)nc2ccccc12)c1ccccc1 (stereo not given)	4%	2%
CCc1ccccc1N(C(C)=O)c1nc(COc2ccc(Cl)cc2C(N)=O)cs1	?	?
Nc1nc(NCc2ccccc2)sc1C(=O)c1ccc(F)cc1	14%	48%[activator]
N#CC1=C(N)OC2=C(C(=O)CC(c3ccccc3)C2)C1Cc1ccccc1 (stereo not given)	37%[activator]	28%
COc1ccc(OC)c(S(=O)(=O)N2CCN(Cc3ccc(C(F)(F)F)cc3)CC2)c1	1%	-8%
COc1ccc(NC(=O)c2sc3nc4c(cc3c2N)CN(C(C)C)CC4)c(OC)c1	?	?
CCOC(=O)C(NC(=O)/C=C/c1ccc(OC(C)C)c(OC)c1)C(=O)OCC	-3%	0%
Cc1ccc(-c2noc(-c3cccnc3NC(C)c3ccc(C)cc3)n2)cc1 (stereo not given)	1%	184%[activator]
O=C(O)C1CCCN(C(=O)c2ccc(C(F)(F)F)cc2)C1 (stereo not given)	0%	0%
CCN(CC)c1ccc(C(=O)NNC(=S)NCCOC)cc1	-2%	13%
COC(=O)c1scc(-c2ccc(C)cc2)c1S(=O)(=O)N1CCN(c2ccc(OC)cc2)CC1	37%[activator]	-18%
CC(C)CNc1nc2ccccc2nc1NS(=O)(=O)c1ccccc1	155%[activator]	5%
O=C(O)/C=C/c1ccsc1	2%	-3%
COc1ccc(-c2c3c(=O)n(C)c(=O)n(C)c3c3c(-c4cccc(C)c4)nc4ccccc4n23)cc1	10%	-7%
Cc1cc(C)c(/C=C/C(=O)Nc2sccc2C#N)cc1C	56%[activator]	69%[activator]
Oc1ccc(CSc2nc3ccccc3s2)c2cccnc12	-23%	22%
O=C(CC(c1cccs1)N1Cc2ccccc2C1=O)Nc1ccc(F)c(F)c1 (stereo not given)	14%	-23%
Cc1cc(C)nc(NS(=O)(=O)c2ccc(NC(=O)c3nc(SC(C)C)ncc3Cl)cc2)n1	11µM*	-9%
COc1cc(C(=O)NCc2ccc3c(c2)CCN3C(=O)c2ccncc2)cc(OC)c1OC	3%	-10%
CCOc1ccc(NS(=O)(=O)c2ccsc2C(=O)OC)cc1	82%[activator]	-3%
CCn1c(C(=O)N2CCC(C(=O)NCCc3ccc(OC)cc3OC)CC2)cc2sccc21	-17%	0%
CCOc1ccccc1-n1nnnc1SCC(=O)NCC1(N2CCOCC2)CCCCC1	37%[activator]	1%
COc1ccc(C)cc1NS(=O)(=O)c1ccc2c(c1)CCCN2C(C)=O	0%	-1%
COc1ccccc1N1CCN(c2nc3ccc(C(=O)c4ccccc4)cc3n3c(C)nnc23)CC1	-5%	-8%
C[C@@H]1COc2cc(Br)ccc2S(=O)(=O)N1Cc1cn(Cc2ccc(F)cc2)nn1	17%	-2%
O=C(/C=C/c1cccnc1)NCCc1cccc2ccccc12	7%	87%[activator]
NS(=O)(=O)c1cccc(NC(=O)c2ccc3ccccc3n2)c1	94%[activator]	0%
CCOc1ccc2c(c1)NC(c1cccs1)=NC(c1ccc(F)cc1)=N2	23%	23%
COc1cccc(Cn2c(=O)n(CC3CCC(C(=O)N4CCOCC4)CC3)c(=O)c3sccc32)c1 (stereo not given)	5%	-24%

7 records drawn at random from those above:
SMILES	StopGo RLuc	2A firefly
Oc1ccc(CSc2nc3ccccc3s2)c2cccnc12	-23%	22%
C[C@@H]1COc2cc(Br)ccc2S(=O)(=O)N1Cc1cn(Cc2ccc(F)cc2)nn1	17%	-2%
CCOc1ccccc1-n1nnnc1SCC(=O)NCC1(N2CCOCC2)CCCCC1	37%[activator]	1%
Cc1cc(C)c(/C=C/C(=O)Nc2sccc2C#N)cc1C	56%[activator]	69%[activator]
CCOc1ccc2c(c1)NC(c1cccs1)=NC(c1ccc(F)cc1)=N2	23%	23%
O=C(CC(c1cccs1)N1Cc2ccccc2C1=O)Nc1ccc(F)c(F)c1 (stereo not given)	14%	-23%
NS(=O)(=O)c1cccc(NC(=O)c2ccc3ccccc3n2)c1	94%[activator]	0%

Following part
SMILES	StopGo RLuc	2A firefly
COCCc1nn2c(=O)cc(COC(=O)COc3ccc(F)cc3)nc2s1	-9%	-4%
Cc1cc(C)cc(OCC(=O)OCC(=O)c2ccc3c(c2)OCO3)c1	13%	-5%
CN(C)CCn1cc(C(=O)c2ccccc2O)cc1-c1nc2ccccc2c(=O)[nH]1	3%	18%
Cc1[nH]c2ccccc2c1C(=O)C(=O)NCC1CCC1	7%	9%
C/C(=N/Nc1ccc(S(N)(=O)=O)cc1[N+](=O)[O-])c1ccc(C#N)cc1	-3%	12%
COc1cc(/C=N/O)cc(Br)c1OC(C)C	19%	0%
O=C(NCCc1ccccn1)c1ccc2c(c1)-c1ccccc1C2	-23%	118%[activator]
CCOC(=O)c1cc2c(=O)n3ccccc3nc2n(CCCOC)c1=NC(=O)C(C)Oc1ccccc1 (stereo not given)	10%	-16%
Cc1ccc(NC(=O)c2ccc(F)c(S(=O)(=O)N3CCc4ccccc4C3)c2)cc1F	-5%	-7%
CS(=O)(=O)c1cccc(OCCOc2ccc(F)cc2)c1	6%	70%[activator]
COc1ccc(C2=C(C)C(=O)N(Cc3ccc(C(=O)Nc4cc(C)ccc4C)cc3)S2(=O)=O)cc1	?	?
CCC(=O)Nc1ccc2nc(SCc3ccccc3)sc2c1	-5%	-23%
COc1ccccc1CNc1nc2ccccc2c2nc(-c3cccnc3)nn12	-16%	-14%
CC1C(=O)Nc2ccc(S(=O)(=O)N3CCCCC3)cc2NC1=O (stereo not given)	?	0%
COc1cccc(C(=O)Oc2ccc(C(=O)COC(=O)c3ccco3)cc2)c1	1%	3%
O=C(NC1CCCC1)c1ccc(Cl)cc1-n1cnnn1	9%	10%
Cc1c(Cl)cccc1-n1ncc(C(=O)N2CCN(c3ncccn3)CC2)c1C1CCN(C(=O)OC(C)(C)C)CC1	3%	-18%
COc1ccc(C2CCCN2C(=O)c2nn(C)c(=O)c3ccccc23)cc1 (stereo not given)	-5%	49%[activator]
O=C(NCCc1ccccc1)c1ccc2c(c1)N(Cc1ccc(F)cc1Cl)C(=O)CS2	-6%	-4%
CC(C)CNc1cccc2c1S(=O)(=O)N(Cc1cn(Cc3cccc(C(F)(F)F)c3)nn1)Cc1ccccc1O2	55%[activator]	2%
Cc1cc(C)c(NC(=O)Cn2nc(-c3ccncc3)ccc2=O)c(C)c1	-11%	-21%
CC(C)c1ccc2oc(-c3cc(NC(=O)c4cccnc4)ccc3Cl)nc2c1	-15%&-13%	49%&115%[activator]
CC(C)N(CCC(C(N)=O)(c1ccccc1)c1ccccn1)C(C)C (stereo not given)	-13%	-10%[11.5 µM]
CCOc1cc(C)c(Cl)cc1S(=O)(=O)N1CCCCC1C (stereo not given)	122%[activator]	3%
CCn1nc(C(=O)OC(C)C(=O)c2c[nH]c3ccccc23)c2ccccc2c1=O (stereo not given)	79%[activator]	1%
Cc1ccc(Cl)cc1N1CCN(C(c2ccc(F)cc2)c2nnc(-c3ccccc3)o2)CC1 (stereo not given)	-6%	-13%

A portion of the library. The share of hits here may be higher or lower than overall.
